Assay outcomes from PubChem BioAssay.
HSV augment = HSV replication enhancement; HSV replication augmentation in cells, fold increase; maximum fold increase; actives 0.005% (n = 220,000); AID 1956;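 active means peak rise of 1.5-fold or more in the series; inconclusive means self-fluorescent or not available for retest; tested in PC3 cells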;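 further: first round at 10 µM; read as green reporter fluorescence; hits show the peak of a series up to 25 µM; 1 = signal of infected wells without compound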
RGS16-Gao = regulators of human RGS16-Galphao interaction | O15492+P09471 | bead-based flow cytometry RGS16-Galphao binding, fluorescence; actives lie on both sides | binding response (% of control), % at 10 µM | actives 0.38% (n = 220,000) | AID 1441;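 active means below 25% or above 175%, edge rows of some plates excepted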;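 further: Galphao activated by GDP with aluminum fluoride before binding; 100% = wells without compound and 0% = beads without RGS; some results beyond the cut were filed as inactive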
Target sequence (O15492 whole entry, looked up): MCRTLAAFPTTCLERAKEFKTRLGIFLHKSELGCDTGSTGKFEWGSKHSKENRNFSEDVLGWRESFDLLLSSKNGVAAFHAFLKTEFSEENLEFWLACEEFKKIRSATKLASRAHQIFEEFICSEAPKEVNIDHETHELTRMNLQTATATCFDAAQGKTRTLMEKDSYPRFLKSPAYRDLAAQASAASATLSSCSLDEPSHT
Target sequence (P09471 whole entry, looked up): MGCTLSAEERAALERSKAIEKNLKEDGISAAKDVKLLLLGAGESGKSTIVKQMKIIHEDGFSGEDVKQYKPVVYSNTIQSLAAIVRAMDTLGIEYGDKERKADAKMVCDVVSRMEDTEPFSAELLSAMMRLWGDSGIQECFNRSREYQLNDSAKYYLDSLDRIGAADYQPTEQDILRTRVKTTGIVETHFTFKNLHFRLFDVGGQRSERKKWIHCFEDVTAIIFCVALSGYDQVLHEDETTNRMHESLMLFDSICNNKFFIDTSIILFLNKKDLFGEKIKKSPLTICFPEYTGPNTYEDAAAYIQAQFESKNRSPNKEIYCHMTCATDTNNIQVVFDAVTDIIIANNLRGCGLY
PKD1 inh = blocks activity of human protein kinase D1; PKD1 kinase fluorescence polarization assay; AID 797; Q15139; inhibition, %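 (about 10 µM by stock and volumes)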; actives 0.056% (n = 200,000);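 active means inhibition of 50% or more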;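 further: controls were vehicle for no effect and a reference inhibitor for full effect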
INS promoter inh = TRM-6 insulin promoter activity inhibition; TRM-6 cells (human fetal islet line), insulin promoter-eGFP reporter, imaging; reporter expression induced with tamoxifen; actives 0.9% (n = 130,000); AID 1273; inhibition, % at 2 µM;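 active means inhibition above the mean plus 3 SD, with well images judged a real hit on visual review, cut at about 60% in these data, passing the limit was not always enough; inconclusive means inhibition over the cutoff but images rejected on review; inactive means inhibition not above the cutoff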
GALR2 agonist = activates the human galanin receptor 2. activation, %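 (tested at 5 µM)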. GALR2-expressing cells, agonist activation read-out. actives 0.48% (n = 140,000). O43603;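 active means above mean plus 3 SD of all compounds, about 5% in these data, not always enough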;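 further: 0% = vehicle buffer wells and 100% = reference agonist at full effect; tested in CHO reporter cells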
Target sequence (O43603 whole entry, looked up): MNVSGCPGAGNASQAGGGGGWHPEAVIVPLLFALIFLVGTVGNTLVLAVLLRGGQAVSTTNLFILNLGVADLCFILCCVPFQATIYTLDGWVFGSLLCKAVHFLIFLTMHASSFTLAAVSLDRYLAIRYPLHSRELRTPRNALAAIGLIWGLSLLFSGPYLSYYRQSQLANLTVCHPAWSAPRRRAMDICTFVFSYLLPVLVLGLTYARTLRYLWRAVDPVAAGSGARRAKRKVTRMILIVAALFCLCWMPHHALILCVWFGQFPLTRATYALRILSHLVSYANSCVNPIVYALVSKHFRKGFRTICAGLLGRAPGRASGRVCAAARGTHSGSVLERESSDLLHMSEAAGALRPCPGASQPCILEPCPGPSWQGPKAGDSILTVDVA
INS promoter inh cell count = further read-out of INS promoter inh, marked with its call; normalized cell count, %; measured here: cell count, toxicity; reference of the scale not given here;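 cells exposed to compound for 48 h; stained nuclei by imaging scaled within each plate; lower means fewer cells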
HSV augment primary fold = also measured in HSV augment; calls as there; fold increase; compound at 10 µM; measured here: primary screen fold increase 10 uM; tested in PC3 cells;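 GFP signal in the first replicate; 1 = infected wells without compound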
Active calls of the source: *; i = inactive; ? = inconclusive; . = no result given.

Below each SMILES: HSV augment	HSV augment primary fold	RGS16-Gao	PKD1 inh	INS promoter inh	INS promoter inh cell count	GALR2 agonist
O=C(NC1CCCc2ccccc21)C1CCN(S(=O)(=O)c2cccc3nonc23)CC1 (centres undefined)
    i	0.65	96	-4	43	89	-1.6
Cc1cccc(OCC(=O)NNC(=O)Nc2cccc(Cl)c2)c1C
    i	0.93	98	4	18	193	-0.3
CCOc1ccc2[nH]c(=O)c(CN(CCN3CCOCC3)Cc3nnnn3C(C)(C)CC)cc2c1
    i	1	97	-15	.	.	-0.3
Cc1cc(F)ccc1S(=O)(=O)Nc1ccccc1C(=O)Nc1ccccc1-c1nc2ccccc2[nH]1
    i	0.82	103	-4	0	107	0.2
CCC(NC(=O)c1cccc(Cn2nc(C)c([N+](=O)[O-])c2C)c1)c1ccc(C(C)C)cc1 (centres undefined)
    i	0.9	103	-1	-11	108	-2.8
Cc1cc(C)cc(N2C(=O)C3NN=C(C(=O)OCc4ccccc4)C3C2=O)c1 (centres undefined)
    i	0.97	67	-3	44	47	0.1
CNC1(c2nnnn2-c2c(C)cccc2C)CCOC(C)(C)C1 (centres undefined)
    i	1	98	.	.	.	.
CCN(CC)C(=O)CSc1nc2c(c(-c3cccnc3)c1C#N)CCCC2
    i	0.93	102	-1	.	.	.
CCOc1ccc(N(CC)S(=O)(=O)c2ccc3c(c2)oc(=O)n3C)cc1
    i	0.91	100	-6	-29	77	0.2
O=C(NC(c1ccccc1)c1ccccc1)c1ccc(=O)[nH]n1
    i	0.92	101	1	-29	83	.
CCOC(=O)c1ccccc1NC(=O)CSc1nnc(Cc2cccn2C)n1-c1ccc(C)cc1
    i	0.64	97	-12	.	.	-1.2
Cc1ccccc1CN(c1ccc(C(=O)NCc2cccnc2)cc1)S(C)(=O)=O
    i	0.97	104	-4	.	.	.
COc1ccc(CCNc2nc(N3CCOCC3)nc(N3CCOCC3)n2)cc1OC
    i	0.86	103	-15	50	72	-1.7
O=C(OCCN=C1NS(=O)(=O)c2ccccc21)c1ccco1
    i	1	103	1	38	88	.
CC(=O)C1=C(C)N(CC2CC2)C(=O)N[C@H]1c1ccccc1
    i	1.1	95	-8	10	117	-0.1
O=c1c2ccccc2nc2n1CCCCC2
    i	1.1	106	-3	64	105	1.1
COc1ccc(N2C(=O)CC(SCc3ccc(Cl)cc3)C2=O)cc1 (centres undefined)
    i	1	96	.	.	.	.
COc1ccc(C(=O)COC(=O)CNC(=O)c2cc(OC)cc(OC)c2)cc1
    i	0.89	108	-10	31	110	-0.2
CN(C)S(=O)(=O)c1ccc(NC(=O)CCNC(=O)c2ccc([N+](=O)[O-])cc2)cc1
    i	1.2	62	-7	52	70	.
COc1cc(NS(=O)(=O)c2ccc(NC(=O)c3ccc(S(=O)(=O)N4CCCC4)cc3)cc2)ncn1
    i	0.95	102	-5	0	82	.
O=C(NC1CCCCC1)N(Cc1cc2cc3c(cc2[nH]c1=O)OCCO3)C1CCCCC1
    i	0.64	103	4	-10	86	-0.5
CCCCN(CCCC)CC(O)CN(c1cc([N+](=O)[O-])ccc1OC)S(=O)(=O)c1ccccc1 (centres undefined)
    i	0.89	140	-7	.	.	0.0
CCCCOc1ccc(CSc2ncn[nH]2)cc1
    i	0.96	99	-3	70	153	-2.0
CCS(=O)(=O)N1CCC(C(=O)NCCCOC)CC1
    i	0.99	103	12	.	.	-0.7
CCCc1[nH]n(-c2nc3ccccc3s2)c(=O)c1C=NCC(C)C
    i	0.92	99	-5	9	94	-3.5
COc1ccc(NC(=S)NC(=O)CC(C)C)c(OC)c1
    i	0.88	95	-2	.	.	.
NC(=O)c1cc2nc(-c3ccco3)cc(C(F)(F)F)n2n1
    i	0.86	109	0	54	116	-0.3
Cn1nc(C(F)(F)F)c(/C=N/OCc2c(Cl)cccc2Cl)c1Cl
    i	0.66	94	-5	4	110	-2.0
O=c1ccc2cc3c4c(c2o1)CCCN4CCC3
    ?	.	99	8	.	.	.
CC1CCCC/C1=N/Nc1ccc([N+](=O)[O-])cc1[N+](=O)[O-] (centres undefined)
    i	1	117	-14	32	85	-0.6

Overlap with the part before: six entries; new compounds follow.
Below each SMILES: HSV augment	HSV augment primary fold	RGS16-Gao	PKD1 inh	INS promoter inh	INS promoter inh cell count	GALR2 agonist
CCCc1[nH]n(-c2nc3ccccc3s2)c(=O)c1C=NCC(C)C
    i	0.92	99	-5	9	94	-3.5
COc1ccc(NC(=S)NC(=O)CC(C)C)c(OC)c1
    i	0.88	95	-2	.	.	.
NC(=O)c1cc2nc(-c3ccco3)cc(C(F)(F)F)n2n1
    i	0.86	109	0	54	116	-0.3
Cn1nc(C(F)(F)F)c(/C=N/OCc2c(Cl)cccc2Cl)c1Cl
    i	0.66	94	-5	4	110	-2.0
O=c1ccc2cc3c4c(c2o1)CCCN4CCC3
    ?	.	99	8	.	.	.
CC1CCCC/C1=N/Nc1ccc([N+](=O)[O-])cc1[N+](=O)[O-] (centres undefined)
    i	1	117	-14	32	85	-0.6
CC(C)NC(=O)c1ccccc1S(=O)c1ccccc1C#N (centres undefined)
    i	0.97	102	-11	3	122	-2.7
O=C(Cc1cccs1)N/N=C/c1ccccc1
    i	0.92	100	.	.	.	.
CC1CCN(S(=O)(=O)c2ccc(NC(=O)CSc3ncccc3C(=O)O)cc2)CC1
    i	0.86	104	0	.	.	-1.6
CCOC(=O)Cc1csc(NC(=O)c2sc3nc4ccc(CC)cc4cc3c2N)n1
    ?	.	504	-12	-27	159	-0.5
O=C(NCC(c1ccco1)N1CCOCC1)c1ccc([N+](=O)[O-])cc1 (centres undefined)
    i	0.94	98	0	.	.	.
NC(=O)c1nsc(C(=O)N(c2ccccc2)C(C(=O)NCC2CCCO2)c2cccs2)c1N (centres undefined)
    i	1	108	-1	.	.	.
COc1ccc(/C=C/C(=O)NCC(=O)n2nc(C)cc2C)cc1
    i	0.95	94	.	.	.	.
CCN(CC)S(=O)(=O)c1ccc(OC)c(NC(=O)Cn2cnc3c2c(=O)n(C)c(=O)n3C)c1
    i	0.88	97	4	0	109	.
CCCSc1ccc(C(=O)Nc2ccc(Cl)cc2)cn1
    i	0.88	95	-7	.	.	.
O=C(NCC(c1ccco1)N1CCCCC1)c1ccc2c(c1)S(=O)(=O)c1ccccc1C2=O (centres undefined)
    .	.	111	-6	21	26	.
CC(C)(C)OC(=O)COc1cc(OCC(=O)OC(C)(C)C)c2c(=O)cc(-c3ccccc3)oc2c1
    i	0.82	103	-6	-43	110	-1.2
Cc1ccc(C(=O)NCCN2C3=NC[C@H](C)N3C[C@H]2Cc2ccc(O)cc2)cc1Br
    i	1.1	100	10	.	.	.
CCN(CC)CCNc1nc(-c2ccccc2)nnc1C(F)(F)F
    i	1	98	-8	-137	3	-0.3
COCCCN1Cc2cccc(C(=O)O)c2C1=O
    i	1	103	-20	.	.	.
Cc1ccc(S(=O)(=O)NCc2c(-c3ccccc3)noc2C)cc1
    i	1	99	.	.	.	.
CCCOc1ccc(/C=C/C(=O)O)cc1OC
    i	0.88	97	-4	.	.	.
COc1ccc(/C=C/C(=O)Nc2nc(C)c(C(=O)N(C)C)s2)cc1
    i	0.75	110	2	43	99	0.3
Cc1ccc(NC(=O)COC(=O)C2=COCCO2)c([N+](=O)[O-])c1
    i	0.67	96	-3	.	.	.
C=CCn1c(O)c(/C=C2\C=NN=C2c2ccccc2)sc1=S
    i	0.83	90	.	.	.	.
Cc1ccc2c(c1)nnn2C1CCN(S(C)(=O)=O)CC1
    i	0.95	104	-12	7	104	-4.2
COc1ccc(N2CCN(CC(=O)NC(=O)NC(C)(C)C)CC2)cc1
    i	0.89	111	0	27	87	.
CC(NC(=O)COc1ccc(N(C)S(=O)(=O)c2ccccc2)cc1)c1ccccc1 (centres undefined)
    i	0.9	99	-3	.	.	.
CCOc1ccc(C(=O)N2CCCC2C(=O)O)cc1 (centres undefined)
    i	0.81	106	-8	25	64	-1.3
CCOc1ccc2nc(NC(=O)Nc3ccccc3)sc2c1
    i	1.1	150	-1	37	35	0.5
CC(CC1C(C#N)=C(N)OC2=C1C(=O)CCC2)c1ccccc1 (centres undefined)
    i	0.96	59	10	.	.	-2.1
Cc1cc(C(=O)NN=C2C3CC4CC(C3)CC2C4)c2ccccc2n1
    i	0.69	102	-1	26	24	0.1
N#Cc1c(N)n(-c2cccc(O)c2)c2nc3ccccc3nc12
    i	0.81	100	.	.	.	.
CCCCNC(=O)c1ccc2c(c1)N(CC)C(=O)CS2
    i	0.94	105	-6	.	.	-2.0
Cc1csc(NC(=O)c2ccc(-c3ccc(Cl)cc3Cl)o2)n1
    i	0.96	102	0	-47	75	8.5*
COC(=O)C(C)Oc1ccc2c3c(c(=O)oc2c1)CCCCC3 (centres undefined)
    i	0.81	96	-7	-11	84	0.9

A few values from above.
PKD1 inh, `O=C(NCC(c1ccco1)N1CCCCC1)c1ccc2c(c1)S(=O)(=O)c1ccccc1C2=O` (centres undefined) stands at -6
GALR2 agonist, `CC(CC1C(C#N)=C(N)OC2=C1C(=O)CCC2)c1ccccc1` (centres undefined) stands at -2.1
HSV augment primary fold, `COc1ccc(/C=C/C(=O)NCC(=O)n2nc(C)cc2C)cc1` stands at 0.95
RGS16-Gao, `Cc1ccc(NC(=O)COC(=O)C2=COCCO2)c([N+](=O)[O-])c1` stands at 96
RGS16-Gao, `COc1ccc(/C=C/C(=O)Nc2nc(C)c(C(=O)N(C)C)s2)cc1` stands at 110

(further entries)
Below each SMILES: HSV augment	HSV augment primary fold	RGS16-Gao	PKD1 inh	INS promoter inh	INS promoter inh cell count	GALR2 agonist
CCOc1ccc(N(CC(=O)Nc2cc(C)ccc2C)S(=O)(=O)c2c(C)[nH]c(=O)[nH]c2=O)cc1
    i	1	104	.	.	.	.
COC(=O)c1cc(OC)c(OC)cc1NC(=O)c1ccc(Br)o1
    i	0.96	.	-4	-196	68	-2.1
COc1ccc(Cc2nc3ccccc3n2CC(=O)N/N=C/c2ccc(C)cc2O)cc1OC
    i	0.87	103	0	-47	106	-2.0
Cc1ccc(C)c(NC(=O)C2Cc3ccccc3CN2C(=O)OCc2ccccc2)c1 (centres undefined)
    i	0.89	100	1	21	122	-1.6
O=C(N/N=C/c1c(O)n(-c2ccc(Cl)cn2)c(=O)c2ccccc12)C1CC1
    i	1	112	-1	.	.	-0.5
O=C(NCCc1ccccc1)c1c(F)cccc1F
    i	0.93	104	1	.	.	.
Cc1cc(/C=N/Nc2ccc([N+](=O)[O-])cn2)c(C)n1-c1cccc(C(=O)O)c1
    i	1	94	.	.	.	.
CCN(CC)S(=O)(=O)c1cccc(-c2nnc(SCc3nc4ccccc4s3)o2)c1
    i	0.91	98	-1	87*	95*	-0.8
CC(C)CCOC(=O)C[N+](C)(C)CCOC1CC2CCC1(C)C2(C)C (centres undefined)
    i	0.92	103	2	-12	85	.
O=C(CSc1nnnn1-c1ccccc1)NCc1ccco1
    i	0.99	100	-8	-271	56	-1.6
Cc1ccc2cccc(NC(=S)NC(=O)c3ccccc3)c2n1
    i	0.9	102	6	6	95	-4.9
CCCc1[nH]nc2c1C(c1ccc(Br)s1)C(C#N)=C(N)O2 (centres undefined)
    i	1.2	91	-11	.	.	-0.9
c1ccc(-c2cccs2)nc1
    i	1	100	.	.	.	.
O=S(=O)(NCC1CCN(S(=O)(=O)c2ccccc2)CC1)c1ccccc1
    i	0.9	106	-4	-91	106	-2.8
CO/N=C/C(=N\Nc1ccc(C)cc1)C(=O)c1ccc(OC)cc1
    i	1	107	-2	0	67	-3.6
O=C(NC(=S)NCCN1CCOCC1)c1ccccc1Br
    i	0.97	94	-4	60	121	-0.9
O=C(CCC(=O)NNC(=O)c1ccc([N+](=O)[O-])cc1)NCc1ccccc1
    i	0.9	102	-2	.	.	.
S=C(NCCc1ccncc1)Nc1ccccc1
    i	0.93	103	2	.	.	.
OCCC1CN(Cc2cccn2-c2ncccn2)CCN1CCc1ccccc1 (centres undefined)
    i	1	98	-7	.	.	.
COCCn1nnnc1C(c1ccc(O)c(OC)c1)N1CCc2ccccc2C1 (centres undefined)
    i	0.97	101	-8	.	.	-1.8
Cc1cc(=O)[nH]c2c1c(-c1ccccc1)nn2C
    i	1.1	103	.	.	.	.
Cc1ccc(-c2c[n+](=O)c3c(n2[O-])CCC3)cc1
    i	1.1	98	.	.	.	.
COC(=O)COc1ccc(C2Nc3c(Cl)ccc(C(=O)O)c3C3C=CCC32)cc1 (centres undefined)
    i	1.3	99	0	.	.	.

Not a hit list; overall some 1.3% were active at least once.
